Bst PK mod – pyruvate kinase (B. stearothermophilus) modulation | partly purified Bacillus stearothermophilus pyruvate kinase, luminescence ATP production; ribose 5-phosphate activator present at AC10 | Potency, µM | 51,000 tested, 1.2% active; in the data active means potency below about 11 µM; inconclusive means mostly about 12 µM to 25 µM; inactive means weaker than that;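 the screen sought inhibitors and activators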;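 further: potency means the concentration at half of the fitted maximal effect; scaled between full activation by ribose 5 phosphate and full inhibition by luteolin; about four in five hits inhibit and the cells do not say which; series up to 57 µM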
TsaE inh – YjeE (TsaE) inhibition, E. coli. 71,000 tested, 0.05% active. Potency, µM. P0AF67. purified YjeE, fluorescence polarisation of a bound ADP probe. AID 605; active = well fitted falling curve; inconclusive = weaker or top-dose-only fall, or a rising curve; inactive = flat or poorly fitted curve;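 further: top concentration of the series not given in the record; excess ADP was the control for the full effect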
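Fluorescence polarization of a BODIPY Texas Red–ADP probe (2 uM) bound to purified YjeE (10 uM) was read after 15 min room-temperature incubation with compounds. Loss of polarization marks inhibitors; ADP serves as titrated control.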
* hit, by the source's call. Not all compounds are listed. The share of hits here may be higher or lower than overall.

Sample of the layout:
C[n+]1cc2c3c(ccc2c2ccc4cc5c(cc4c21)OCO5)OCO3 was read as TsaE inh inactive.
CN(C)c1ccc(NC(=O)CC2NCCNC2=O)cc1 (centres undefined) was read as Bst PK mod >57 and TsaE inh inactive.
Screening O=C(c1cnccn1)N1CCC2(CC1)CN(Cc1nccs1)C2 returned TsaE inh inactive.
Oc1ccc(-c2nc(-c3ccc(O)c(O)c3)cs2)cc1 was read as TsaE inh inactive.
Screening CCS(=O)(=O)N1CCN(C(=O)CC(C)C)CC1 returned Bst PK mod >57 and TsaE inh inactive.
Screening CC(=O)N(C(C)=O)c1ccc2nc(C)[nH]c(=O)c2c1 returned Bst PK mod >57 and TsaE inh inactive.

The whole of this part, from the first entry:
C[n+]1cc2c3c(ccc2c2ccc4cc5c(cc4c21)OCO5)OCO3 was read as TsaE inh inactive.
CN(C)c1ccc(NC(=O)CC2NCCNC2=O)cc1 (centres undefined) was read as Bst PK mod >57 and TsaE inh inactive.
Screening O=C(c1cnccn1)N1CCC2(CC1)CN(Cc1nccs1)C2 returned TsaE inh inactive.
Oc1ccc(-c2nc(-c3ccc(O)c(O)c3)cs2)cc1 was read as TsaE inh inactive.
Screening CCS(=O)(=O)N1CCN(C(=O)CC(C)C)CC1 returned Bst PK mod >57 and TsaE inh inactive.
Screening CC(=O)N(C(C)=O)c1ccc2nc(C)[nH]c(=O)c2c1 returned Bst PK mod >57 and TsaE inh inactive.
COc1cccc(OC)c1C(=O)Nc1ccc(CN2CCCCC2)cc1 was read as Bst PK mod >57 and TsaE inh inactive.
For NC1=CC(=O)c2cccc3cccc1c23 the results were Bst PK mod inactive and TsaE inh inactive.
Screening COc1cccc(NS(=O)(=O)c2cc(C)sc2C)c1 returned Bst PK mod >57 and TsaE inh inactive.
Screening Cc1cc(C(=O)NC(C)C)on1 returned Bst PK mod >57 and TsaE inh inactive.
COc1ccc(OC)c(NC(=O)CSc2nnc(C)n2Cc2ccccc2)c1 was read as Bst PK mod >57 and TsaE inh inactive.
Screening Cc1cc(C)c2c(n1)nn1c(NCCCN3CCOCC3)cc(C)nc21 returned Bst PK mod >57 and TsaE inh inactive.
`CC1(C)CC(=O)C2=C(C1)Nc1ccccc1NC2c1nc2ccccc2[nH]1` (centres undefined) gave TsaE inh inactive.
`O=C(COC(=O)CNC(=O)c1ccc(Br)o1)Nc1ccc2c(c1)OCCO2` gave Bst PK mod >57 and TsaE inh inactive.
`C=CCn1c(SCC(=O)N2CCOCC2)nc2scc(-c3ccco3)c2c1=O` gave Bst PK mod >57 and TsaE inh inactive.
COCCn1c(=O)[nH]c2cc(C(=O)N3CCN(c4ccccc4OC)CC3)ccc2c1=O was read as Bst PK mod >57 and TsaE inh inactive.
Cc1nc2c(n1O)CCC/C2=N\O was read as Bst PK mod >57 and TsaE inh inactive.
`CCOC(=O)CCCNC(=O)COC(=O)c1cccc(C)c1O` gave Bst PK mod >57 and TsaE inh inactive.
`CC(=O)Nc1cccc(C(=O)OCc2ccccc2)c1` gave Bst PK mod >57 and TsaE inh inactive.
For Cc1cnc(C)c(N2CCC(C(=O)NCc3ccco3)CC2)n1 the results were Bst PK mod >57 and TsaE inh inactive.
For O=C(c1ccc(Cl)cc1)N1CCC(c2nc(-c3cccs3)no2)CC1 the results were Bst PK mod >57 and TsaE inh inactive.
Screening O=C(CSc1nnc(-c2ccccc2Cl)o1)N1CCCCC1 returned TsaE inh inactive.
CCCc1c(OCCCCc2nn[nH]n2)ccc(C(C)=O)c1O was read as Bst PK mod >26.
Cc1cc(C)c(C#N)c(SCc2[nH]nc3c2C(c2ccccc2)C(C#N)=C(N)O3)n1 (centres undefined) was read as Bst PK mod >26.
`COc1ccc(CCN(Cc2nc3ccccc3c(=O)[nH]2)C(=O)c2ccco2)cc1OC` gave Bst PK mod >57 and TsaE inh inactive.
`COC(=O)C1=C(C)N(c2ccc(F)cc2)C(=O)C1` gave TsaE inh inactive.
`O=S(=O)(Nc1cccc2ccccc12)N1CCCC1` gave TsaE inh inactive.
`COC(=O)c1ccc(C(NC(=O)OCc2ccccc2)/C(C)=C/[C@@H](C)C(=O)N2CCN(C)CC2)cc1` (some centres undefined) gave TsaE inh inactive.
`Cc1cc(C(=O)NCc2cc(C(=O)O)oc2C)c(C)o1` gave Bst PK mod >57 and TsaE inh inactive.
Cc1noc(N)c1C(=O)Nc1ccc(F)c(Cl)c1 was read as Bst PK mod >57 and TsaE inh inactive.
Screening C(=N\n1cnnc1)/c1cccnc1 returned Bst PK mod >26.
`COC(=O)c1cc(OC)c(OCc2cc(C(=O)OC)oc2C)c(OC)c1` gave TsaE inh inactive.
Screening c1ccc(CSc2nnc3c(n2)OC(c2ccco2)Nc2ccccc2-3)cc1 (centres undefined) returned TsaE inh inactive.
For CC(Sc1nncs1)C(=O)NCc1ccc2c(c1)OCO2 (centres undefined) the results were Bst PK mod >57 and TsaE inh inactive.
Screening CCNc1ncc2nc(CCc3ccccc3)c(=O)n(C3CC3)c2n1 returned TsaE inh inactive.
`CCOC(=O)c1c(C)c(C(=O)NCc2cccs2)c(C)n1CC` gave Bst PK mod >57 and TsaE inh inactive.
For COCCNC(=O)C(c1ccco1)N(C(=O)Cn1nnc2ccccc21)c1ccccc1C (centres undefined) the results were Bst PK mod >57 and TsaE inh inactive.
For COc1ccc(OC)c2c(=S)c3ccccc3[nH]c12 the results were TsaE inh inactive.
For COC(=O)Nc1nc2ccc(C(=O)c3ccccc3)cc2[nH]1 the results were Bst PK mod >26 and TsaE inh inactive.
Cc1noc(C)c1-c1ccc2ncnc(N3CCOCC3)c2c1 was read as TsaE inh inactive.
Screening CCOC(=O)CNC(=O)Cn1cnc2ccc(S(=O)(=O)N3CCC(C)CC3)cc2c1=O returned Bst PK mod >57 and TsaE inh inactive.
Cc1ccc(S(=O)(=O)NCCSc2nnc(N)s2)cc1 was read as Bst PK mod inconclusive and TsaE inh inactive.
`Cc1cccc(NC(=O)CCn2ccnc2C)c1` gave Bst PK mod >57 and TsaE inh inactive.
Screening COc1ccc(CCN(Cc2cc3cc(C)ccc3[nH]c2=O)C(=O)N2CCCC2)cc1OC returned Bst PK mod >57 and TsaE inh inactive.
`CCOC(=O)Cc1csc(NC(=O)CN2C(=O)c3ccccc3S2(=O)=O)n1` gave Bst PK mod >57 and TsaE inh inactive.
`COc1ccc(OCC(=O)NCc2cccnc2)cc1` gave Bst PK mod >57 and TsaE inh inactive.
CN(C)c1oc(-c2ccco2)nc1C#N was read as Bst PK mod >57 and TsaE inh inactive.
COc1ccc(CCn2c(N3CCN(C)CC3)nc3c2c(=O)[nH]c(=O)n3C)cc1 was read as Bst PK mod >11 and TsaE inh inactive.
Screening C#CCSc1nnc(-c2ccccc2)c(=O)[nH]1 returned Bst PK mod >57 and TsaE inh inactive.
For COc1ccc(C(N)=O)cc1NC(=O)CC(O)(C(F)(F)F)C(F)(F)F the results were Bst PK mod >57 and TsaE inh inactive.
`Cc1cc(C(=O)Nc2ccc(S(=O)(=O)Nc3onc(C)c3C)cc2)c(C)o1` gave Bst PK mod >57 and TsaE inh inactive.
`O=C(COc1ccc(Cl)cc1)NCc1nnc(SCC(=O)NC2CCCC2)o1` gave Bst PK mod >57 and TsaE inh inactive.
For O=CNC(=O)c1ccccc1C(=O)O the results were Bst PK mod >26.
For CC(C)CCNC(=O)CCS(=O)(=O)c1cccc2nonc12 the results were Bst PK mod >57 and TsaE inh inactive.
For O=S(=O)(NCCSc1ccccc1)c1ccc(F)cc1 the results were Bst PK mod inconclusive and TsaE inh inactive.
`COc1ccc(NC(=O)CSc2ncn(-c3ccccc3)n2)cc1Cl` gave Bst PK mod >57 and TsaE inh inactive.
For O=C1O[C@@H]([C@@H](O)CO)[C@@H](O)[C@H]1O the results were TsaE inh inactive.
`CCOC(=O)Nc1nnc(-c2ccccc2OC)s1` gave Bst PK mod >57 and TsaE inh inactive.
For c1ccc(CNn2nnnc2-c2ccccc2)cc1 the results were Bst PK mod >57 and TsaE inh inactive.
COC(=O)c1ccc(C(NC(=O)OCc2ccccc2)/C(I)=C/[C@@H](C)C(=O)NCc2ccncc2)cc1 (some centres undefined) was read as TsaE inh inactive.

Fetched by compound from the entries so far (four):
For c1ccc(CNn2nnnc2-c2ccccc2)cc1 the results were Bst PK mod >57 and TsaE inh inactive.
COc1ccc(CCn2c(N3CCN(C)CC3)nc3c2c(=O)[nH]c(=O)n3C)cc1 was read as Bst PK mod >11 and TsaE inh inactive.
Screening COc1ccc(CCN(Cc2cc3cc(C)ccc3[nH]c2=O)C(=O)N2CCCC2)cc1OC returned Bst PK mod >57 and TsaE inh inactive.
For O=S(=O)(NCCSc1ccccc1)c1ccc(F)cc1 the results were Bst PK mod inconclusive and TsaE inh inactive.

For convenience, some entries already given.
CN(C)c1oc(-c2ccco2)nc1C#N was read as Bst PK mod >57 and TsaE inh inactive.
COc1ccc(CCn2c(N3CCN(C)CC3)nc3c2c(=O)[nH]c(=O)n3C)cc1 was read as Bst PK mod >11 and TsaE inh inactive.
Screening C#CCSc1nnc(-c2ccccc2)c(=O)[nH]1 returned Bst PK mod >57 and TsaE inh inactive.
For COc1ccc(C(N)=O)cc1NC(=O)CC(O)(C(F)(F)F)C(F)(F)F the results were Bst PK mod >57 and TsaE inh inactive.
`Cc1cc(C(=O)Nc2ccc(S(=O)(=O)Nc3onc(C)c3C)cc2)c(C)o1` gave Bst PK mod >57 and TsaE inh inactive.

(list continues)
Screening O=C(CSCc1ccccc1)Nc1nccs1 returned TsaE inh inactive.
CCOC(=O)c1c(NC(=O)COC)sc2c1CCCC2 was read as Bst PK mod >57 and TsaE inh inactive.
Screening COC(=O)Nc1c(-c2ccccc2)nc2ccccn12 returned Bst PK mod >57 and TsaE inh inactive.
`CCOC(=O)CSc1nc2c(sc(=S)n2Cc2ccco2)c(=O)n1-c1ccccc1` gave Bst PK mod >57 and TsaE inh inactive.
COC(=O)c1ccccc1NC(=O)C1COc2ccccc2O1 (centres undefined) was read as Bst PK mod >26.
Screening COCC(C)Nc1ncnc2c1cnn2-c1ccc(Cl)cc1 (centres undefined) returned Bst PK mod 11*.
`COc1ccc(CCNC(=O)c2cc3sccc3n2C)cc1OC` gave Bst PK mod >57 and TsaE inh inactive.
Screening CO/C=C/C#CC1(O)CCN(C)CC1 returned Bst PK mod >57 and TsaE inh inactive.
For Cc1ccccc1CSc1nnc(Cn2c(=O)sc3ccccc32)n1C the results were TsaE inh inactive.
Screening COC(=O)c1ccc(C)c(NC(=O)Cc2coc3cc(OC)ccc23)c1 returned Bst PK mod >57 and TsaE inh inactive.
Screening COCCn1c(N2CCN(c3ccc(OC)cc3)CC2)nc2c1c(=O)[nH]c(=O)n2C returned Bst PK mod >57 and TsaE inh inactive.
CCOC(=O)N1CCN(C(=O)Nc2ccc3nc(-c4ccccn4)c(-c4ccccn4)nc3c2)CC1 was read as TsaE inh inactive.
Screening Cc1ccc(S(=O)(=O)Cc2ccc(C(=O)N3CCN(c4ccc(F)cc4)CC3)o2)cc1 returned TsaE inh inactive.
Screening Cc1ccc(NC(=O)Cn2cnc3c(cnn3C(C)(C)C)c2=O)cc1 returned Bst PK mod >57 and TsaE inh inactive.
For Cc1ccsc1C1CC(=O)NC2=C1C(=O)CC(C)(C)C2 (centres undefined) the results were Bst PK mod >57 and TsaE inh inactive.
For CN(C)c1ccc(-c2cc(-n3ccnc3)ncn2)cc1 the results were TsaE inh inactive.
O=C(NCCN1CCOCC1)c1cc2n(n1)C(C(F)(F)F)CC(c1ccc(F)cc1)N2 (centres undefined) was read as Bst PK mod >26.
`COC(=O)c1ccccc1NC(=O)CSc1n[nH]c(CC(C)C)n1` gave Bst PK mod >57 and TsaE inh inactive.
`CC(C)CNc1nc2ncnc(N)c2[nH]1` gave TsaE inh inactive.
For COc1ccc(OC)c(C2NC(=O)NC(C)=C2C(=O)Nc2ccc(C)cc2C)c1 (centres undefined) the results were TsaE inh inactive.
For CCOC(=O)C1=C(C)NC(C)=C(C(=O)OC)[C@@H]1c1cccc(Cl)c1Cl the results were TsaE inh inactive.
For c1nc(N2CCCCC2)c2[nH]cnc2n1 the results were TsaE inh inactive.
`Cc1c(Cl)ccc2c1NC(=O)C21NC(CCC(N)=O)[C@H]2C(=O)N(c3ccc(Cl)cc3)C(=O)[C@H]21` (some centres undefined) gave Bst PK mod >57 and TsaE inh inactive.
`O=C(c1ccc(Cl)cc1)c1nnc(-c2ccncc2)o1` gave Bst PK mod >57 and TsaE inh inactive.
Cc1csc(SCc2nc3sc4c(c3c(=O)[nH]2)CCC4)n1 was read as Bst PK mod >57 and TsaE inh inactive.
For O=C(O)CCc1ccc(-c2ccccc2)n1CC1CCCO1 (centres undefined) the results were Bst PK mod >57 and TsaE inh inactive.
`O=C(Nc1c(F)c(F)c(F)c(F)c1F)NC1CCCCC1` gave Bst PK mod >57 and TsaE inh inactive.
Screening Cc1cccc2nc(CSc3nnnn3-c3ccccc3)cn12 returned Bst PK mod >57 and TsaE inh inactive.
O=C(NCCN1CCOCC1)N1CCOCC1 was read as Bst PK mod >57 and TsaE inh inactive.
For CC1(C)Cc2c(C#N)c(N3CCCC3)nc(-c3ccco3)c2CO1 the results were TsaE inh inactive.
`CCOC(=O)Cn1c(=N)n(CCOc2cccc(C)c2)c2ccccc21` gave Bst PK mod >57 and TsaE inh inactive.
For COc1ccc(-c2nc(NC(=O)CSc3nnc(C)s3)ns2)cc1 the results were TsaE inh inactive.
`O=C1CC(c2cccc(F)c2)C2=C(CCCC2=O)N1` (centres undefined) gave TsaE inh inactive.
O=C(c1coc(=O)c2ccccc12)N1CCN(Cc2ccccc2)CC1 was read as Bst PK mod >57 and TsaE inh inactive.
`CCN(CC)S(=O)(=O)c1ccc(-c2nnc(SCC(=O)Nc3ccc4c(c3)OCO4)o2)cc1` gave Bst PK mod >57 and TsaE inh inactive.

High-throughput results deposited in PubChem by National Center for Advancing Translational Sciences (NCATS).
